TRPML1 inh = human mucolipin-1 channel inhibition. hit rate 0.02% among 390,000. TRPML1-inducible cells, Ca2+ dye fluorescence, FDSS; hits give low values; inhibition of EC80 agonist-evoked calcium signal. Q9GZU1. AID 624415. activity change, negative = inhibition, % (concentration not given with the values); in the data active means activity change below about -50%; inconclusive means about -30% to -50%; inactive means above about -30%;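 note: stimulus is agonist 54-4 at its EC80 concentration; % is set by controls: 0 for no effect and ±100 for the full control effect; compound concentration not given in the record; the text of the record puts the active cut at -80%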
Target sequence (Q9GZU1 whole entry, looked up): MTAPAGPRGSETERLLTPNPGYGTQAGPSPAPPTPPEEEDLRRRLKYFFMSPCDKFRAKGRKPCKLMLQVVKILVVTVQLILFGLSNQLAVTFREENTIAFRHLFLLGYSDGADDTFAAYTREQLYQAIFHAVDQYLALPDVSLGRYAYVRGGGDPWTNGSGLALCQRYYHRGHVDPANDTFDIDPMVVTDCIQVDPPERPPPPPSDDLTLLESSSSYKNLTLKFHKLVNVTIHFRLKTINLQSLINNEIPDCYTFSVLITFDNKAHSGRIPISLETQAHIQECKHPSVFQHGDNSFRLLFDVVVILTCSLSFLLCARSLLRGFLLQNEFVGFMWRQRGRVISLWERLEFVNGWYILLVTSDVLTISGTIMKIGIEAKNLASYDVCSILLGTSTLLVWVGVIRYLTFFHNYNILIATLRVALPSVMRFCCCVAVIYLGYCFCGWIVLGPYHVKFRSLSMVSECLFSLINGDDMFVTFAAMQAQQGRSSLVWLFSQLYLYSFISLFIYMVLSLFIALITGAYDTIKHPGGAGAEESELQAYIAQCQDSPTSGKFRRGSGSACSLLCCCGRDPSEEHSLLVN
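Tet-induced TRPML1-DL cells loaded with Ca8 no-wash calcium dye were read kinetically on FDSS. Compound addition was followed by EC80 agonist 54-4 (4 uM final); inhibition was read over 110 s.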
Six1-Eya2 blk = blocks human Six1 binding to Eya2. activity change, % (no concentration beside the values). Q15475+O00167. AlphaScreen GST-Six1/His-Eya2 binding, biochemical; hits give low values; control for the full effect not named in the record. AID 651725. hit rate 0.56% among 360,000; in the data active = activity change below about -65%; inconclusive = about -30% to -65%; inactive = above about -30%; note: % is set by controls: 0 for no effect and ±100 for the full control effect; compound concentration not given in the record
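GST-Six1 + His-Eya2 (5X stock: 250/500 nM); Tris pH 8.0, 300 mM NaCl, 0.05% BSA, 0.02% Tween 20; GSH donor/Ni acceptor beads; 1 h 37 °C dark; AlphaScreen readout.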
PINK1 modulator = changes PINK1 expression; hit rate 0.2% among 410,000; PINK1 immunofluorescence, high-content cytometry, 24 h; Potency, µM (top dose mostly 76.6 µM), for inactives: top-dose activation (PINK1 increase), most hits filed as activators; AID 624263; active = well fitted activation curve with a large enough effect; inconclusive = small, poorly fitted or top-dose-only effect; inactive = flat fitted curve, though single readings scatter; cell line not stated here;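 note: potency is the fitted concentration of half-maximal effect; % of control where 0% means no effect; nearly all actives have a fitted effect of over 65% in size; a mitochondrial uncoupler was the plate control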
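Cells are seeded, rested 12 hours, then given compound at five concentrations or DMSO for 24 hours. After fixation, blocking and antibody staining, PINK1 amount and mitochondrial localization are scored; CCCP serves as control.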
D2 ag = agonists of human D2 dopamine receptor (beta-arrestin). activation, % (no concentration beside the values). hit rate 0.084% among 360,000. AID 624465. DiscoveRx PathHunter D2 beta-arrestin, luminescence, 90 min; 100% = 57 uM dopamine signal. P14416; in the data active = activation above about 40%; inconclusive = about 15% to 40%; inactive = below about 15%; note: compound concentration not given in the record; the text of the record calls up to 30% inactive
Target sequence (P14416 whole entry, looked up): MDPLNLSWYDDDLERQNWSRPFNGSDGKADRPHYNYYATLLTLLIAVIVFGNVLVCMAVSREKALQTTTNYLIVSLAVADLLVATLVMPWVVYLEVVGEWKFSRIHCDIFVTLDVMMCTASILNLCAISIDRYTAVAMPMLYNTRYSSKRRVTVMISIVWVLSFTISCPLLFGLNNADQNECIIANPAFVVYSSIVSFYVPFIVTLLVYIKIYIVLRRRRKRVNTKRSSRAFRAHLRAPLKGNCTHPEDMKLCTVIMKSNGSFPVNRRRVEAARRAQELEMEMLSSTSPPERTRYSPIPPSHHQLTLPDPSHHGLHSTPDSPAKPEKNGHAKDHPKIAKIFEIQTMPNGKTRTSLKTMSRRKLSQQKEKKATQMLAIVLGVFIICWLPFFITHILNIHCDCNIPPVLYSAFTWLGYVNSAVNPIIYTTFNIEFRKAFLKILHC
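Agonist mode: compounds alone added to overnight-plated D2 PathHunter cells for 90 min at 37 C, with 57 uM final dopamine (EC100) defining full response. Beta-arrestin recruitment detected by chemiluminescent reagent, read after 1 h at ambient temperature.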
TRPML1 agonist = activates the human TRPML1 channel; activation, % (concentration not given with the values); hit rate 0.12% among 410,000; Q9GZU1; AID 624414; TRPML1-expressing cells, Ca2+ dye fluorescence, FDSS; host cell line not named in the record; reference of the full effect not given here; in the data active = activation above about 50%; inconclusive = about 30% to 50%; inactive = below about 30%; note: 0% is about no effect; the text of the record puts the active cut at 80%
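Tet-induced TRPML1-DL cells, 1,500 per well, cultured overnight, were loaded with a no-wash Ca2+ dye for 45–90 min. Calcium fluorescence was recorded on the FDSS for 110 s after compound addition, before the EC80 agonist (4 uM 54-4) was added.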
CtBP-E1A inh = blocks the CtBP interaction with E1A; AlphaScreen GST-E1A/His-CtBP binding, 1536-well; hits give low values; control for the full effect not named in the record; activity change, % (concentration not given with the values); hit rate 0.49% among 340,000; in the data active means activity change below about -65%; inconclusive means about -30% to -65%; inactive means above about -30%; note: % is set by controls: 0 for no effect and ±100 for the full control effect
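Steps: dispense buffer (Tris pH 8.0, NaCl 300 mM, TCEP 1 mM, BSA, Tween 20); add 5X protein mix (GST-E1A, His-CtBP, 125 nM each); pin 23 nL compound; 2 h at 37 °C, dark; add 5X beads (50 ug/mL); 1 h; read.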
An asterisk follows results filed as active; ? = inconclusive; / = no result given; & = joins results of further samples; [ ] = remark or other dose.

SMILES	TRPML1 inh	Six1-Eya2 blk	PINK1 modulator	D2 ag	TRPML1 agonist	CtBP-E1A inh
Cc1ccc(/C=C2\C(=O)ON=C2c2ccccc2)o1	3	-3	0.7%	-5.8	0.0	0
O=[N+]([O-])c1ccccc1CNC1CCCCCC1	5	8	1.5%	-2.8	1.2	/
COc1ccc(Cl)cc1N1C(=O)[C@@H]2C(c3cccc(OC)c3OC)=NO[C@@H]2C1=O	27	-1	-1.1%	-3.4	5.0	-6
CCCOc1ccc(-c2c(C(=O)N/N=C(\C)c3cccnc3)nnn2-c2nonc2N)cc1	-1	2	-1.4%	-0.6	0.2	-13
CSc1cccc(NC(=O)c2cnn(-c3ccc(F)cc3)c2-n2cccc2)c1	15	/	-0.3%	/	2.9	/
CCCc1ccc(OCc2ccc(C(=O)N3CCCC3)o2)cc1	18	-1	1.1%	6.3	2.5	2
O=S(=O)(Nc1nc2ccccc2nc1N1CCN(c2ccccn2)CC1)c1ccc(Cl)cc1	7	-7	17%	0.3	1.2	-1
COc1cccc2c1Oc1ncccc1N(C(=O)Nc1cccc(Cl)c1)C2	14	/	1.3%	/	6.2	/
COc1cccc(C2NC(=O)NC(C)=C2C(=O)Nc2ccc(C)cc2)c1OC (stereo not given)	9	3	-1.2%[38.3 µM]	-3.3	0.5	9
COC(=O)c1ccc(CNC(=O)COC(=O)/C=C/c2cccc(OC)c2)cc1	-9	-2	2.8%	-0.9	0.9	-13
CCOC(=O)c1ccc(-c2ccc(/C=C(\C#N)C(=O)Nc3cccc(C)c3)o2)cc1	9	/	1.9%	/	0.5	/
COc1cccc(-c2nc(CS(=O)(=O)CC(=O)NC3CCCCCC3)c(C)o2)c1	4	2	2.0%	0.0	1.6	-1
Cc1cc(C)c(NC(=O)Cn2nnc(C(=O)NCc3cccs3)c2N)c(C)c1	6&8	-2	0.8%&2.7%	0.6	-0.3&0.5	7
CN(C)c1ccc(NC(=O)Nc2ccc3snnc3c2)cc1	-2	-23	2.4%	-3.0	-0.3	-15
COc1ccc(C2C(C(=O)/C=C/c3ccco3)=C(O)C(=O)N2CCN2CCOCC2)cc1OC (stereo not given)	-4	-15	1.4%	1.7	1.4	1
CC(C)CC(C(=O)Nc1ccc2c(c1)OCCO2)N1C(=O)c2ccccc2C1=O (stereo not given)	6	5	1.4%	6.7	1.7	0
CN(C)C(=S)N=c1ssc(=S)n1Cc1cccnc1	4	0	15%	-7.6	-0.3	0
COc1ccc(NS(=O)(=O)c2cccc(C(=O)NCC(c3ccc(OC)cc3)N3CCOCC3)c2)cc1 (stereo not given)	4	3	-0.6%	-2.6	0.4	1
O=c1[nH]nc(C(F)(F)F)c2nnn(Cc3ccccc3Cl)c12	4	13	-0.9%	5.3	0.4	12
NNC(=O)CN1C(c2cccc(Cl)c2)=Nc2ccc(Br)cc2C1c1ccccc1 (stereo not given)	17	-4	-1.3%	-1.1	1.5	-11
COc1ccc([C@H]2N[C@]3(CCCN(Cc4cccn4C)C3=O)[C@H]3C(=O)N(C)C(=O)[C@@H]23)cc1	-5	-7	0.6%	-7.5	-0.3	-4
N#C/C(=C\c1c(N2CCOCC2)nc2ccccn2c1=O)S(=O)(=O)c1ccccc1	18	-4	0.8%	-0.6	-0.8	-3
COc1ccc(/C=N/NC(=O)c2ccc(Cl)cc2)cc1Cn1cc(Cl)cn1	30	-1	8.0%	-3.6	-0.3	0
N#Cc1ccccc1OCC(=O)Nc1c(C(=O)C2CC2)oc2ccccc12	-9	0	12%	-2.2	0.1	2
O=[N+]([O-])c1ccc(C[n+]2cccc3c4ccccc4ccc32)cc1	5	-8	1.7%	-8.6	0.2	/

2 entries picked at random from those above, as already listed:
SMILES	TRPML1 inh	Six1-Eya2 blk	PINK1 modulator	D2 ag	TRPML1 agonist	CtBP-E1A inh
CC(C)CC(C(=O)Nc1ccc2c(c1)OCCO2)N1C(=O)c2ccccc2C1=O (stereo not given)	6	5	1.4%	6.7	1.7	0
O=c1[nH]nc(C(F)(F)F)c2nnn(Cc3ccccc3Cl)c12	4	13	-0.9%	5.3	0.4	12

Other results follow:
SMILES	TRPML1 inh	Six1-Eya2 blk	PINK1 modulator	D2 ag	TRPML1 agonist	CtBP-E1A inh
Cc1ccc(CNC(=O)CNS(=O)(=O)c2cccs2)cc1	-13	/	-3.3%	/	0.0	/
Cc1nnc(N/N=C\c2ccc(-c3ccccc3[N+](=O)[O-])o2)n1N	8	?	-0.5%	9.1	0.7	-1
O=C(NCc1ccccc1Br)c1ccc2c(c1)OCCO2	8	18	0.4%	-1.9	-0.4	17
Cc1cc(C)c(Cn2c3ccccc3c3cnn(CC(=O)NCCc4ccccc4)c(=O)c32)c(C)c1	10	/	0.0%	/	-0.2	/
O=C(O)C1CCCN1C(=O)C1CCN(S(=O)(=O)c2cccc(C(F)(F)F)c2)CC1 (stereo not given)	-7	-1	0.4%	-5.2	-0.1	2
CN(C)S(=O)(=O)c1ccc(C(=O)Nc2ccc(OCC(=O)N3CCOCC3)cc2)cc1	1	6	-0.3%	-4.3	0.0	1
CC1(C)CC(=O)C=C(c2ccc(COC(=O)c3cc(F)cc(F)c3)cc2)C1=O	-5	?	0.9%	-3.5	2.7	-14
COc1cc(C(=O)NCCc2ccc(S(N)(=O)=O)cc2)cc(OC)c1OC	-9	1	7.7%[38.3 µM]	-1.5	3.9	6
COc1ccc(C2C(C(=O)Nc3ccccc3)=C(C)Nc3c(C(=O)Nc4ccccc4)cnn32)cc1 (stereo not given)	14	/	13%	/	1.0	/
CC(=O)c1ccc(NC(=O)CCOc2cc(C)ccc2C)cc1	20	3	-0.8%	1.4	1.0	4
CCc1nnc(NC(=O)CSc2ncnc3scc(-c4ccc(C)cc4)c23)s1	-7	-1	8.9%[38.3 µM]	-3.0	0.4	-2
CCOC(=O)c1cc(-c2ccccc2)n(CC(=O)NC(C)c2ccccc2)c1C (stereo not given)	4	/	10%	/	1.2	/
COc1ccc(C2NC(=S)NC(C)=C2C(=O)N2CCOCC2)cc1 (stereo not given)	11	-1	1.2%	1.8	2.9	3
CC(CC(=O)Nc1nccs1)c1ccccc1 (stereo not given)	27	-11	2.0%	-0.5	0.1	0
COc1ccc(NC(=O)c2oc3ccc(S(=O)(=O)N4CCC5(CC4)OCCO5)cc3c2C)cc1Cl	-18	/	1.6%	/	2.4	/
O=C1CCCc2c1nc(-c1ccccc1F)n2O	11	4	-1.0%	-3.1	0.3	9
ClCc1csc(-c2ccc(Cl)cc2)n1	-1	2	0.7%	-7.5	-1.6	-3
CCCOc1ccc(Oc2nc(NCC(C)C)nc(N3CCOCC3)n2)nn1	-1	/	3.7%	/	0.9	/
COc1ccc(CCNC(=O)CCn2cccc2)cc1OC	2	-3	0.4%	0.9	-0.2	-1
CN(CC(=O)Nc1ccc(F)c(F)c1F)C(=O)c1ccc(-n2cncn2)cc1	3	2	1.3%	8.8	-0.3	5
CCCc1cc(-c2n[nH]c(C)c2-c2ccc(C(=O)OCC)o2)c(O)cc1O	-4	-7	10%[38.3 µM]	-0.6	0.1	-12
CN(C)CC(NC(=O)c1cccc(S(=O)(=O)Nc2ccc3c(c2)OCO3)c1)c1ccccc1 (stereo not given)	-11	0	-1.0%	-3.1	1.3	-7
CC(C)C(c1nnnn1Cc1ccco1)N1CCC(C(N)=O)CC1 (stereo not given)	-6	3	3.8%	2.8	0.4	10
CC(C)(C)C(=O)NCCCNc1ccc([N+](=O)[O-])cc1	6	-2	1.8%	-1.4	-1.3	-7
O=C(NCC1CCCO1)c1ccc(Cl)c(F)c1F (stereo not given)	-2	12	-2.5%	3.6	0.1	-2

Next section; the last 5 above are carried over.
SMILES	TRPML1 inh	Six1-Eya2 blk	PINK1 modulator	D2 ag	TRPML1 agonist	CtBP-E1A inh
CCCc1cc(-c2n[nH]c(C)c2-c2ccc(C(=O)OCC)o2)c(O)cc1O	-4	-7	10%[38.3 µM]	-0.6	0.1	-12
CN(C)CC(NC(=O)c1cccc(S(=O)(=O)Nc2ccc3c(c2)OCO3)c1)c1ccccc1 (stereo not given)	-11	0	-1.0%	-3.1	1.3	-7
CC(C)C(c1nnnn1Cc1ccco1)N1CCC(C(N)=O)CC1 (stereo not given)	-6	3	3.8%	2.8	0.4	10
CC(C)(C)C(=O)NCCCNc1ccc([N+](=O)[O-])cc1	6	-2	1.8%	-1.4	-1.3	-7
O=C(NCC1CCCO1)c1ccc(Cl)c(F)c1F (stereo not given)	-2	12	-2.5%	3.6	0.1	-2
CCOC(=O)CC(c1ccc([N+](=O)[O-])cc1)n1c(C)ccc1C (stereo not given)	34	-13	0.4%	2.7	1.8	-1
COc1ccc(Br)cc1CNC(=O)C1CCCCN1S(=O)(=O)c1ccc(F)cc1 (stereo not given)	3	/	-0.8%	/	1.8	/
O=C(COc1ccc(Cl)cc1)NCc1ccncc1	-12	-2	-1.3%	-2.7	0.5	-13
C/C(=C\C(=O)c1ccccc1)Nc1ccc(N2CCOCC2)cc1	5	-15	0.7%	5.7	-0.5	-7
O=C(CSc1nc(-c2ccccc2)[nH]c1-c1ccc(F)cc1)NC1CCCC1	-14	/	-2.0%	/	7.6	/
CCN(CC(=O)NCc1cccs1)C(=O)c1ccc(S(=O)(=O)Nc2ccccc2F)cc1	-10	3	4.6%	1.1	0.5	9
CC1=C(C(=O)Nc2ccc(F)c(F)c2)C(c2cccs2)NC(=S)N1 (stereo not given)	-8	-6	3.4%	-0.2	-0.2	-3
CCN1C=C(Cc2ccc(OC)cc2)C2=C(C1)C(c1ccc(OC)cc1)C(C#N)=C(N)O2 (stereo not given)	10	-29	3.4%	-4.9	-0.2	-15
O=C(NCCOc1ccccc1F)C1CCC(=O)N(CC2CCCCC2)C1 (stereo not given)	16	-7	2.4%	-1.5	0.2	-4
O=C(NC1CCS(=O)(=O)C1)OC1CCCCC1 (stereo not given)	-17	1	-2.6%[38.3 µM]	1.7	0.4	-5
CCn1c(C)c(C2N3CC4(C)CN2CC(CC)(C3)C4=O)c2ccccc21 (stereo not given)	75	/	0.5%	/	0.7	/
O=C1C(c2ccc(F)cc2)N(CCc2ccccc2)C(=O)CN1C1CCCCC1 (stereo not given)	-20	/	1.0%	/	1.4	/
COCCN1C(=O)/C(=C/c2ccc(N3CCCC3)cc2)SC1=S	-11	-1	?	-4.5	60*	-5
O=C(NCc1ccco1)c1ccc2c(c1)N(Cc1ccccc1)C(=O)c1ccccc1S2	75	/	0.5%	/	2.1	/
Cc1cccc(NC(=O)Cn2cnc3ccccc3c2=O)c1C	2	6	-0.6%	-2.8	-0.2	5
CCCCn1nnnc1C1(C)CCC(=O)N1CCc1ccc(O)cc1 (stereo not given)	/	8	-0.4%	/	0.1	0
CCn1ccnc1CNC(=O)c1ccc(OC2CCN(C(=O)COC)CC2)cc1	-14	0	-1.9%	2.7	0.0	-28
CCc1ccc(NC(=O)CSc2nc3ncccc3[nH]2)cc1	9	/	2.2%	/	-0.9	/
Cc1ccc(-n2ncc3c(NNC(=O)c4ccco4)ncnc32)c(C)c1	-14	-8	-0.4%	-5.5	-0.1	-15
CC(C)CC(=O)N1CC=CC[C@@H](c2ccc(Cl)cc2)N(Cc2ccc(Cl)cc2)C(=O)[C@@H]1Cc1ccccc1	78	-7	0.2%	-2.1	1.1	0

High-throughput results: PubChem, National Center for Advancing Translational Sciences (NCATS)
